YopH inh: inhibitors of Yersinia enterocolitica YopH tyrosine phosphatase; fluorescence Ex485/Em525; inhibition, %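 (about 10 µM by stock and volumes)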; 0.16% of 140,000 active; AID 898;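 active = inhibition of 50% or more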;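 note: controls were vehicle for no effect and minimum signal wells for full effect; inactives centre near -20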
Mtb growth: M. tuberculosis H37Rv growth inhibitors, H37Rv strain (AID 1626) | M. tuberculosis H37Rv growth inhibition; higher % means a stronger effect | inhibition, % at 10 µM, or IC50 in µM where a hit was titrated | 0.95% of 220,000 active;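 active = confirmed in a dose series; inconclusive = inhibition above 80% but not taken into the dose series; inactive = below 80% or under 30% at every dose of the series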;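 note: bacteria incubated seven days before Alamar blue readout; 0% = bacteria only wells and 100% = bacteria with antibiotic wells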
Mtb betalactam: beta-lactam sensitization of Mtb H37Rv; inhibition, % at 25 µM; AID 434955; M. tuberculosis H37Rv growth with meropenem, percent inhibition; hits of this screen are not shown here; 0.27% of 330,000 active;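 active = about 74% or more and at least 40 points above the plate without the antibiotic, then above 30% in a dose series; inconclusive = first-round hits that could not be retested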;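 note: growth measured after seven days incubation then overnight dye step; 0% = bacteria only wells and 100% = bacteria with antibiotic; twin plates without the antibiotic show which effects depend on it; some results filed as inactive read as strong as hits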
Arbovirus anti: arbovirus infection inhibition; arbovirus infection cell-based antiviral screen; inhibition, % at 10 µM; 0.37% of 200,000 active;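 active = inhibition from about 30%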;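 note: bluetongue infection of BSR cells; cell survival read as ATP light after 72 h; 0% = infected wells without compound and 100% = uninfected wells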
RecA splice inh: blocks M. tuberculosis RecA intein splicing; P9WHJ3; cell-free RecA intein splicing, fluorescence; inhibition, %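 (about 9 µM by stock and volumes)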; 0.75% of 290,000 active; AID 2221; in the data active = inhibition above about 30%; inconclusive = no clear call, values can overlap the other calls;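 note: 0% = vehicle wells and 100% = reference inhibitor control wells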
Target sequence (P9WHJ3 whole entry, looked up, canonical isoform): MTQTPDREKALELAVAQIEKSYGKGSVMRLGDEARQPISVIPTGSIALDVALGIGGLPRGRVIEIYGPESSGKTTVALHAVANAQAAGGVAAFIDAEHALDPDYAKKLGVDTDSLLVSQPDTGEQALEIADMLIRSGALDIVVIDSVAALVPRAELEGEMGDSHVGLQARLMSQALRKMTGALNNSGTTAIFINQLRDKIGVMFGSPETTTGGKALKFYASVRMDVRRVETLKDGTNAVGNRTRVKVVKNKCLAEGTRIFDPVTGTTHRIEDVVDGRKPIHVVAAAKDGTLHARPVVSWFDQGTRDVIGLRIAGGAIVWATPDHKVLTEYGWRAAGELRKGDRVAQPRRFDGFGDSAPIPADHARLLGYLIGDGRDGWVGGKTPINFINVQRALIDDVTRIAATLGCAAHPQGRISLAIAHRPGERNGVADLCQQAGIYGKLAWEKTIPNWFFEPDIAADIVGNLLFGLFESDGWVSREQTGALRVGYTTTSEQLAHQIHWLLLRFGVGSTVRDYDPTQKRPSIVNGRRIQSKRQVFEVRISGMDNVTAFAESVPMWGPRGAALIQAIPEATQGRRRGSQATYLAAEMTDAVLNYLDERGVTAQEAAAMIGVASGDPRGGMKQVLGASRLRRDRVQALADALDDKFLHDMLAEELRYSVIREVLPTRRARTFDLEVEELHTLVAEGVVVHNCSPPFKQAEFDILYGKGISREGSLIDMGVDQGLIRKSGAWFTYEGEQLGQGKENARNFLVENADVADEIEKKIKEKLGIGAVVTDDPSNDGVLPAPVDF
Arbovirus anti repeat: recorded beside Arbovirus anti, whose call it bears; inhibition, %; measured here: 10K subset replicate screen; many hits read low in the repeat;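 first of two repeat runs on a subset; 0% = infected and 100% = uninfected wells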
Numbers without * were called inactive; ? = inconclusive; . = no result given. Only part of the results is shown, so the mix of outcomes need not match the whole.

SMILES | YopH inh | Mtb growth | Mtb betalactam | Arbovirus anti | RecA splice inh | others
CN(CC(O)CN)CC(O)CN1CCCCC1 (stereo unspecified) | -15 | -6% | 7 | 1 | 3.0
Cc1cc(C)cc(C(=O)/C=C2\NC(=O)CS2)c1 | -34 | 30% | -6 | -7 | 1.9
Cc1ccc(S(=O)(=O)NCCC(=O)N2CCCC(C)C2)cc1 (stereo unspecified) | . | . | -13 | . | 2.2
CC(NC(=O)C(C(=O)c1cccc([N+](=O)[O-])c1)n1cc(Cl)ccc1=O)c1ccccc1 (stereo unspecified) | -24 | 2% | 8 | 2 | 0.1
Cc1ccc(C(=O)Nc2ccc(S(=O)(=O)N3CCCC3)cc2)cc1 | . | . | -1 | . | -3.0
O=C(O)Cc1sc(Nc2ccccc2)nc1-c1ccc(Cl)cc1 | . | 13% | 9 | 25 | -1.4
CC1CCCN(c2ccc(C(=O)Nc3nnc(C4CC4)s3)cc2[N+](=O)[O-])C1 (stereo unspecified) | -33 | 2% | -2 | 17 | -0.1
O=C(Nc1cnccn1)Nc1ccccc1Cl | . | -5% | -7 | -7 | .
COc1ccc(N2C(=O)CSC2c2cccc(F)c2)cc1 (stereo unspecified) | . | . | 5 | . | 1.2
COC(C/C=C/C(=O)COCc1ccccc1)OC | . | -2% | . | . | 2.3
CCCCN(C)CCNC(=O)CCn1nc(-c2ccc(Cl)cc2)ccc1=O | . | . | -2 | . | -1.3
CCOC(=O)c1c(NC(=O)CSc2n[nH]c(CNc3ccccc3)n2)sc(C)c1C | -6 | 4% | 3 | -12 | .
COc1cc(-c2noc(-c3ccccc3C(=O)NCc3ccco3)n2)cc(OC)c1OC | -3 | 6% | 28 | -4 | -0.3
Cc1ccc(N2C(=O)c3ccc(C(=O)O)cc3C2=O)c(C)c1 | -30 | 5% | -2 | -10 | 4.2
c1ccc2c(c1)CC1(CCCC1)N=C2N1CCOCC1 | . | -3% | 3 | . | -3.0
CN(C)Cc1c(C(=O)N/N=C/c2ccc(-c3ccccc3)cc2)nnn1-c1nonc1N | . | . | -2 | . | -0.8
COCCCN(C(=O)c1ccc(N2CCCC2=O)cc1)c1c(N)n(Cc2ccccc2)c(=O)[nH]c1=O | . | . | -13 | . | -0.9
COCCCN(C(=S)Nc1cccc(Cl)c1)C(C)c1ccncc1 (stereo unspecified) | -13 | 3% | -3 | 3 | -0.2
COc1ccc(NC(=O)CCc2nc3ccccc3[nH]2)cc1 | . | -3% | -4 | 7 | -2.0
COc1ccc(NC(=S)N2CCN(c3ccc([N+](=O)[O-])cc3)CC2)cc1OC | . | 6% | 2 | -1 | 0.0
CN(Cc1nccs1)C(=O)c1ccc(OC2CCN(Cc3ccccn3)CC2)cc1 | . | . | ? | . | 2.4
CCc1nccn1CCC(=O)NC1CC(C)(C)Cc2c1cnn2-c1cccc(F)c1 (stereo unspecified) | . | . | -1 | . | 0.6
Cc1cccc(-n2c(SCC(=O)N3CC(=O)Nc4ccccc43)nc3ccccc3c2=O)c1 | . | 5% | 5 | 3 | 1.7
O=C(/C=C/c1cnc2ccccc2n1)NC12CC3CC(CC(C3)C1)C2 | -11 | 3% | 54 | 2 | 0.6
CC1CN(C(=O)Cn2c(C(F)(F)F)nc3ccccc32)CC(C)O1 (stereo unspecified) | -14 | -4% | -4 | 8 | 0.3
COCC(C)N1C(=O)Cc2c1nc(N)c1c(N)nc(N3CCN(c4ccccc4F)CC3)c(C#N)c21 (stereo unspecified) | . | -13% | -3 | -18 | -54
CCS(=O)(=O)N1CCCC(C(=O)NCCc2ccc(C)cc2)C1 (stereo unspecified) | -23 | -6% | 0 | -2 | -1.8
COc1cccc(NC(=S)NNC(=O)C(C)n2nc(C)c([N+](=O)[O-])c2C)c1 (stereo unspecified) | 3 | 1% | -5 | 0 | -2.9
COc1ccc(C(=O)Nc2ccccc2C(=O)NCc2ccco2)cc1OC | -22 | 0% | 14 | 7 | -1.9
Cn1c(SCc2nc(-c3ccc(Cl)cc3)no2)nnc1-c1cccs1 | -2 | 0% | 1 | 1 | -1.1

Random excerpt: two entries already listed.
SMILES | YopH inh | Mtb growth | Mtb betalactam | Arbovirus anti | RecA splice inh | others
COc1cccc(NC(=S)NNC(=O)C(C)n2nc(C)c([N+](=O)[O-])c2C)c1 (stereo unspecified) | 3 | 1% | -5 | 0 | -2.9
COc1ccc(NC(=O)CCc2nc3ccccc3[nH]2)cc1 | . | -3% | -4 | 7 | -2.0

The results go on.
SMILES | YopH inh | Mtb growth | Mtb betalactam | Arbovirus anti | RecA splice inh | others
Cc1ccc(CN2CCN(Cc3cn(C(C)C)c4ccccc34)CC2CCO)o1 (stereo unspecified) | . | -8% | -5 | 6 | 2.5
COC(=O)c1ccc(C)c(NC(=O)CCSc2ccc(Cl)cc2)c1 | 0 | . | -4 | -13 | -1.5
COc1ccc(CC(=O)Nc2nc(-c3cccnc3)cs2)cc1 | -21 | 4% | ? | -1 | 1.6
CC1(C)Cc2c(c(-c3ccco3)nc3n[nH]c(N)c23)CO1 | -22 | -18% | 0 | -1 | -0.1
CCOc1ccc(N(CC(=O)NC2CC3CCC2C3)S(=O)(=O)c2ccc(C)cc2)cc1 (stereo unspecified) | . | . | -9 | . | -4.8
COc1ccccc1C1NC(c2ccccc2OC)C(C)C(=O)C1C (stereo unspecified) | -10 | 4% | -12 | -3 | 3.4
Cc1cc(CN2CCCC(CO)(Cc3cccc(Cl)c3)C2)n[nH]1 (stereo unspecified) | . | 1% | 4 | -4 | -1.5
COc1cc(OC)cc(C(=O)NNC(=S)NC(=O)c2cccnc2)c1 | . | . | 90 | . | -7.3
O=C(NCCN1CCOCC1)c1cccc(Cl)c1 | -35 | -7% | -6 | -6 | 3.1
CCOC(=O)C(C)Sc1nnc(NC(=O)c2ccc(C)c([N+](=O)[O-])c2)s1 (stereo unspecified) | -28 | 6.7µM* | 97 | -4 | .
Cn1nnnc1SCC(=O)NC1CCCC1 | . | . | -4 | . | -5.9
CC(C)(C)c1cc(CCC(=O)N2CCC2)cc(C(C)(C)C)c1O | . | . | 0 | . | 0.4
COc1ccccc1NC(=O)c1ccc(SCC(=O)NCc2ccccc2Cl)c([N+](=O)[O-])c1 | -12 | 6% | -5 | -7 | -0.3
CCOC(C(=O)OCCC[N+](C)(CC)CC)(c1ccccc1)c1ccccc1 | 3 | -14% | 10 | 6 | -2.2
O=C1c2oc3ccccc3c(=O)c2C(c2ccc(O)cc2)N1c1nccs1 (stereo unspecified) | . | 0% | 8 | -6 | 0.1
Cc1cc(=O)oc(C)c1C(=O)Nc1ccc2ncccc2c1 | -9 | -4% | 0 | -5 | .
COc1cccc(CN(C(=O)c2ccc([N+](=O)[O-])cc2)C2CCS(=O)(=O)C2)c1 (stereo unspecified) | . | . | 5 | . | -0.4
CC(C)OC(=O)c1ccc(NC(=O)CSc2nc3ncccc3[nH]2)cc1 | . | 0% | 44 | 13 | 3.6
Cc1ccccc1NC(=O)c1cccc2c1C(=O)N(C1CCCCC1)C2 | . | . | 9 | . | 2.3
COc1ccc(C(=O)OCC(=O)Nc2ccc(OC(F)F)cc2)c(OC)c1 | -19 | -5% | 0 | -2 | -0.9
COc1ccc(NC(=O)N2CCc3ccccc3C2)c(OC)c1 | . | . | -14 | . | 0.3
Cc1cc(/C=N/Nc2ncnc(N)c2[N+](=O)[O-])c(C)n1-c1ccccc1 | . | -3% | 4 | . | 0.5
CCCCNC(=O)Cc1cc(=O)[nH]c(=O)[nH]1 | . | -7% | -3 | 5 | -3.4
CN1CCN(CC(O)COCc2ccc3c(c2)OCO3)CC1 (stereo unspecified) | -37 | -2% | 3 | 4 | -2.7
CCn1c(CSc2nnc(-c3cccnc3)n2-c2ccccc2C)nc2cc(C(=O)O)ccc21 | 12 | . | 0 | 9 | .
c1ccc(CCNc2ccc3nncn3n2)cc1 | -22 | 1% | -8 | -7 | -1.8
O=C(Cn1nnc(-c2ccccc2Cl)n1)N1CCN(S(=O)(=O)c2ccc(Cl)cc2)CC1 | -31 | 6% | -3 | 6 | 3.4
O=C(NC(=O)c1ccccc1)NC(=O)c1ccccc1 | 1 | 5% | -13 | 8 | -2.4
O=C(CN1CCCCCC1)Nc1ccc(Br)cc1Br | -10 | 10% | -3 | -20 | 3.2
CCOC(=O)c1sc2nc(SC)nc(-c3ccc(Cl)cc3)c2c1N | -42 | -6% | 5 | -5 | .
O=C(CN(c1cccc(C(F)(F)F)c1)S(=O)(=O)c1ccccc1)N1CCOCC1 | -26 | -9% | -3 | -1 | -0.8
Cc1ccc(-c2csc(=S)n2CC(=O)OCC(=O)NC(C)C(C)C)cc1 (stereo unspecified) | 1 | 0% | -3 | -9 | 3.0
Cc1ccc2c(c1)cc1c(=O)n(CC(=O)NCCN3CCCC3)nc(C)n12 | . | . | 5 | . | -1.1
CC(CC(=O)Nc1ccc(S(=O)(=O)N2CCOCC2)cc1)c1ccccc1 (stereo unspecified) | . | -6% | -4 | . | 0.7
CC(=O)Nc1ccc2c(c1)n(C)c(=O)n2C | -7 | -7% | -12 | 2 | -2.0
Cc1ccc(NC(=O)Cn2nc(C)c3ccccc3c2=O)cc1 | -26 | -4% | -19 | -1 | 1.6
CCOC(=O)c1c(-c2cccc([N+](=O)[O-])c2)csc1NC(=O)CCCOc1ccccc1 | -39 | 15% | -1 | 10 | 5.2
O=S(=O)(c1ccc2c(c1)OCCO2)N1CCN(Cc2ccccc2)CC1 | 17 | 6% | -10 | -2 | 3.9
NC(=O)c1cc(C(=O)c2ccc(Cl)cc2)c[nH]1 | . | -12% | -10 | 9 | -2.1
CCCCC(=O)Nc1ccc2oc(-c3cccnc3)nc2c1 | -42 | 5% | -10 | 2 | 3.2
Cc1ccc(-c2c[n+](Cc3ccc(Cl)c(Cl)c3)c3n2CCC3)cc1 | -6 | . | 44 | -8 | -3.6
C=CCNC(=O)COC(=O)c1nc2nccc(C)n2n1 | . | 6% | 2 | 4 | 0.6
S=C(NC1CCCC1)N1CCN(C/C=C/c2ccccc2)CC1 | . | 4% | -4 | 3 | -1.1
O=C(O)c1ccc(COc2ccc3c(c2)CCC3)cc1 | . | -5% | -2 | . | 0.8
Cc1cccc(C(=O)OC(C)CN2CCOCC2)c1 (stereo unspecified) | . | -7% | 4 | 20 | 0.1
Cc1cc(C(=O)NNC(=S)NCC(C)C)cs1 | -7 | -6% | 2 | -4 | 1.3
CC1CN(C(=S)Nc2ccc(Br)cc2Cl)CC(C)O1 (stereo unspecified) | . | . | -3 | . | -1.3
CC(=O)c1cccc(NC(=O)c2cc(-c3cccs3)on2)c1 | . | . | -2 | . | 3.4
Cn1c(SCC(=O)OC2CCCCC2)nnc1-c1ccco1 | -3 | -4% | -3 | -2 | -3.6
CC(=O)N1[C@H](Cc2ccccc2)C=C[C@]1(C)C(=O)NCCN1CCOCC1 | . | . | -5 | . | -1.7
CCOC(=O)C1=C(C)N(CC(C)C)C(=O)/C1=C\c1ccc(OCC(=O)Nc2ccccc2)cc1 | -47 | -2% | 14 | 0 | -1.5
CC1CCN(c2nc3c(c(=O)[nH]c(=O)n3C)n2CCCc2ccccc2)CC1 | -39 | 8% | -9 | 1 | -3.0 | Arbovirus anti repeat=5

In the list so far, 13 contain an aryl methoxy group.
SMILES | YopH inh | Mtb growth | Mtb betalactam | Arbovirus anti | RecA splice inh | others
COc1ccc(N2C(=O)CSC2c2cccc(F)c2)cc1 (stereo unspecified) | . | . | 5 | . | 1.2
COc1cc(-c2noc(-c3ccccc3C(=O)NCc3ccco3)n2)cc(OC)c1OC | -3 | 6% | 28 | -4 | -0.3
COc1ccc(NC(=O)CCc2nc3ccccc3[nH]2)cc1 | . | -3% | -4 | 7 | -2.0
COc1ccc(NC(=S)N2CCN(c3ccc([N+](=O)[O-])cc3)CC2)cc1OC | . | 6% | 2 | -1 | 0.0
COc1cccc(NC(=S)NNC(=O)C(C)n2nc(C)c([N+](=O)[O-])c2C)c1 (stereo unspecified) | 3 | 1% | -5 | 0 | -2.9
COc1ccc(C(=O)Nc2ccccc2C(=O)NCc2ccco2)cc1OC | -22 | 0% | 14 | 7 | -1.9
COc1ccc(CC(=O)Nc2nc(-c3cccnc3)cs2)cc1 | -21 | 4% | ? | -1 | 1.6
COc1ccccc1C1NC(c2ccccc2OC)C(C)C(=O)C1C (stereo unspecified) | -10 | 4% | -12 | -3 | 3.4
COc1cc(OC)cc(C(=O)NNC(=S)NC(=O)c2cccnc2)c1 | . | . | 90 | . | -7.3
COc1ccccc1NC(=O)c1ccc(SCC(=O)NCc2ccccc2Cl)c([N+](=O)[O-])c1 | -12 | 6% | -5 | -7 | -0.3
COc1cccc(CN(C(=O)c2ccc([N+](=O)[O-])cc2)C2CCS(=O)(=O)C2)c1 (stereo unspecified) | . | . | 5 | . | -0.4
COc1ccc(C(=O)OCC(=O)Nc2ccc(OC(F)F)cc2)c(OC)c1 | -19 | -5% | 0 | -2 | -0.9
COc1ccc(NC(=O)N2CCc3ccccc3C2)c(OC)c1 | . | . | -14 | . | 0.3

Screening results as filed in PubChem.
